Screening data deposited in PubChem BioAssay by several laboratories.
rRNA inh HTS: inhibits bacterial ribosomal RNA function over humanized ribosomes | E. coli WT GFP vs humanized-ribosome RFP mutants, fluorescence, 24 h; stronger effect = lower value; DMSO median 0, no signal -100 | GFP signal change (wild-type ribosome), % (no concentration beside the values) | AID 720706 | 350,000 compounds, 1.6% hits;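 active = significant combined selectivity score with lowered wild-type GFP, culture density cut under 30%, mutant RFP and density less affected; inactive = any of these conditions unmet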; note: one replicate is shown; some compounds called inactive have numbers as strong as hits
HNF4A DNA FP: change in binding of human HNF4 alpha to DNA | 360,000 compounds, 0.3% hits | activity change, % at 10 µM | P41235 | AID 1224865 | HNF4a-FITC DNA binding, fluorescence polarization, 1 h; in the data active = activity change above about 30%, passing the limit was not always enough;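 note: controls were the assay level and a saturating level of protein; the project sought stronger binding though the title names inhibitors; some compounds called inactive have numbers as strong as hits; positive values seem to mean higher polarization but the record does not say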
Target sequence (P41235 whole entry, looked up): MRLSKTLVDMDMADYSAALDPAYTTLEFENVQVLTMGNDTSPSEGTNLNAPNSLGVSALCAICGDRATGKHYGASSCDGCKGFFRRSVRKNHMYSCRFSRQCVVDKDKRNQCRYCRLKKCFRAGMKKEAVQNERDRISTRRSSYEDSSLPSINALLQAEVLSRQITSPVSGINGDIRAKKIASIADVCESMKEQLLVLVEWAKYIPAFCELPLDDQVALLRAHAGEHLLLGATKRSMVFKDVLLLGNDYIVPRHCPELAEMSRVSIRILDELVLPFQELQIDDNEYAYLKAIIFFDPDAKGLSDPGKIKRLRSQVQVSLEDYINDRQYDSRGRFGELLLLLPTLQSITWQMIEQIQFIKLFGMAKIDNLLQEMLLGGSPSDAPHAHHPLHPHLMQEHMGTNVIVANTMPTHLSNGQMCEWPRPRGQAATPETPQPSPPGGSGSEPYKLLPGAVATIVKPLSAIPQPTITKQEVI
Vif A3G: inhibitors of Vif binding to APOBEC3G peptide, primary screen, biochemical, TR-FRET, GST-Vif 1-94, biotin-A3G peptide, dose response retest (AID 1117319) | 260,000 compounds, 0.57% hits | TR-FRET GST-Vif / biotin-A3G peptide binding; higher % means a stronger effect; test concentration not given here; strong numbers were not always called active | inhibition, %, or IC50 in µM where a hit was titrated;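 active = above the screen mean plus three standard deviations and confirmed in dose response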;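 note: Vif residues 1-94 fused to GST binding biotinylated APOBEC3G peptide 110-148; 0% = full assay without inhibitor and 100% = GST in place of GST-Vif; retest series ran down from 100 µM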
AF4-AF9 inh: MLL-AF4/AF9 protein interaction inhibition; inhibition, % at 10 µM; AID 651704; 350,000 compounds, 0.47% hits; AlphaScreen, biotin-AF4 peptide binding to FLAG-AF9;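 active = every replicate reaching a set inhibition limit, whatever the replicate mean, cut at about 25% in these data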;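 note: 0% = plate neutral control median and 100% = total signal loss; the record names both 10 and 1 µM as test concentration; the first replicate is given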
Target sequence (P42568 whole entry, looked up): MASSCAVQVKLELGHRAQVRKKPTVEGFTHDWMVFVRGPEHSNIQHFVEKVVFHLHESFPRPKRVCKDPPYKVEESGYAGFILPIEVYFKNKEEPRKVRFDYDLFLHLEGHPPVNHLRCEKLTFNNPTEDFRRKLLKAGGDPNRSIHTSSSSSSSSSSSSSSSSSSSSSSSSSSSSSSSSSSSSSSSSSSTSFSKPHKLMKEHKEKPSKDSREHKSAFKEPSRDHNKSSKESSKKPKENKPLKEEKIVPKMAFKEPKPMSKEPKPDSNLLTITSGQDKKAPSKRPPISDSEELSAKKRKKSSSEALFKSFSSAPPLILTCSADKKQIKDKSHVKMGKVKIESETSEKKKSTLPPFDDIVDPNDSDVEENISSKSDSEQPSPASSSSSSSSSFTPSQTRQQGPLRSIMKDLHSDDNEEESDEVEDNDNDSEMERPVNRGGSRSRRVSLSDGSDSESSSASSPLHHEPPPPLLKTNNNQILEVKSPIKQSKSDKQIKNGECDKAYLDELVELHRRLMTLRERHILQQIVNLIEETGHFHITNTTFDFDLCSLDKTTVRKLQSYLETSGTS
E coli growth: inhibitors of Escherichia coli growth | 330,000 compounds, 0.21% hits | OD600 absorbance (no concentration beside the values) | OD600, 23 h; stronger effect = lower value;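 active = OD600 absorbance below the run mean of sample wells minus 3.6 SD, in any replicate, cut at about 0.56 in these data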;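 note: stock transfer was 300 nL into about 60 µL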
FGF22 binding: binders of recombinant human FGF22 by thermal shift; calls only at 9.99 µM; AID 651658; Q9HCT0; SYPRO orange fluorescence; percent of sucrose octasulfate shift, DMSO zero; 340,000 compounds, 1.5% hits;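 active = melting point raised past a set limit in the mean and every replicate; three in four hits are not shown here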
ALR H2O2 inh: human ALR oxidase inhibition via reduced H2O2 | inhibition, % (test concentration not listed) | P55789 | 290,000 compounds, 3.8% hits | AID 485317 | purified ALR, DTT oxidation, H2O2 HRP-luminol luminescence;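 active = mean and each replicate at 75% or more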;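 note: stock transfer was 7.5 nL into about 7.5 µL; 0% = neutral wells and 100% = wells with inactivated enzyme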
rRNA inh HTS OD600: second read-out of rRNA inh HTS, no call of its own (marks repeat the call); OD600 change, %; measured here: OD600 growth;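 optical density of the mix in the first replicate; 0 = DMSO median and -100 = no signal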
rRNA inh HTS RFP: recorded beside rRNA inh HTS, whose call it bears; RFP signal change, %; measured here: RFP humanized mutant strains;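 first replicate; 0 = DMSO median and -100 = no signal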
Numbers without * were called inactive; i = inactive; / = no result given; + = active, no number; & = joins results of further samples.

SMILES	rRNA inh HTS	rRNA inh HTS OD600	rRNA inh HTS RFP	HNF4A DNA FP	Vif A3G	AF4-AF9 inh	E coli growth	FGF22 binding	ALR H2O2 inh
CC(C)CC(NC(=O)c1ccc(Cl)cc1)C(=O)OCC(=O)c1ccc2c(c1)NC(=O)CO2 (centres undefined)	/	/	/	-0.1	-1%	/	0.75	/	3
CCOc1ncccc1C(=O)OCC(=O)Nc1ccc2c(c1)CCC2	1	-28	-4.1	2.1	-7%	-2.3	0.64	i	15
CC1CCCCC1NCc1cccc([N+](=O)[O-])c1 (centres undefined)	22	16	1.1	2.9	4%	-3.9	0.68	i	-2
N#CC1=C(N)NC(SCC(=O)c2ccccc2)=C(C#N)C12CCCC2	/	/	/	2.2	31%	/	0.71	/	/
C[C@@H]1CN([C@H](C)CO)C(=O)c2cc(NC(=O)Nc3ccc4c(c3)OCO4)ccc2O[C@@H](C)CCCCO[C@@H]1CN(C)C(=O)c1ccccc1	1	2	-0.4	/	/	0.4	/	i	/
CC(C)COC(=O)N1CCCC1C(=O)Nc1nccs1 (centres undefined)	/	/	/	-2.7	7%	/	0.71	/	-2
CCS(=O)(=O)N1CCC(NC(=O)C(Cc2ccc(OC)c(OC)c2)NC(C)=O)CC1 (centres undefined)	14	10	3.8	-0.7	-4%	-6.2	0.68	i	-13
CS(=O)(=O)N1CCCCC1c1cc(C(=O)NCc2ccccc2)no1 (centres undefined)	5	21	1.9	2.2	/	-6.6	/	i	/
O=C(Nc1ccccc1C(F)(F)F)c1ccc(F)c(S(=O)(=O)N2CCOCC2)c1	/	/	/	-0.1	-5%	/	0.65	/	-3
CC(C)Oc1cccc(C(=O)C2CCCN(C(=O)CCn3cnnn3)C2)c1 (centres undefined)	4	9	5.1	3.5	/	-0.6	0.72	i	-11
CCC(=O)OCc1cc2cccc(C)c2[nH]c1=O	/	/	/	1.3	2%	/	0.66	/	-3
C[C@@H]1CN([C@H](C)CO)S(=O)(=O)c2ccc(C#C[C@@H](C)O)cc2O[C@H]1CN(C)Cc1ccccn1	-5	-7	-0.3	/	/	-3.5	/	i	/
CCOC(=O)C1(C)CCCN(C(=O)c2cccc(C#N)c2)C1 (centres undefined)	10	13	3.3	1.4	/	-0.3	/	+	/
CCOC(=O)c1cccnc1SC(CC)C(=O)NCc1ccco1 (centres undefined)	/	/	/	-1.0	3%	/	0.73	/	1
COc1ccc(NC(=O)Cn2c3ccc(OC)cc3c3nc4n(c(=O)c32)CCS4)cc1	7	5	-1.3	0.3	/	-2.6	0.71	i	/
Cc1ccccc1C(=O)NNC(=O)CSc1nc2ccccc2c(=O)[nH]1	11	-9	-15	-0.3	-7%	-22	0.74	/	-11
CCOC(=O)C1(CCOc2ccccc2)CCN(Cc2ccc(O)c(OCC)c2)CC1	-16	-29	23	-5.5	/	5.9	0.68	i	/
O=C(NCc1ccccc1F)C1CCCN1C(=O)Nc1ccc(F)cc1 (centres undefined)	6	9	1.2	-0.4	/	-2.3	0.72	i	/
CCOC(=O)c1ccc(NC(=O)COc2ccc(S(=O)(=O)NC(C)C)cc2)cc1	17	1	2.0	-5.5	3%	8.4	0.7	i	43
COc1ccc2cc(C(=O)NCc3ccccc3)c(=Nc3ccc(C(=O)O)cc3)oc2c1	7	13	-0.2	2.0	-2%	1.6	0.66	i	-2
C[C@H](CO)N1C[C@H](C)[C@@H](CN(C)C(=O)C2CCCCC2)Oc2cc(C#Cc3ccncc3)ccc2S1(=O)=O	-10	-18	2.7	/	/	2.7	/	i	/
N#Cc1c(-c2ccccc2)cc(C2CC2)nc1N	/	/	/	7.1	27%	/	0.66	/	-9
COc1ccc(Cn2nnnc2C(c2cc3cc(C)ccc3[nH]c2=O)N2CCOCC2)cc1 (centres undefined)	/	/	/	1.1	3%	/	0.7	/	1
COCCN(C(=O)CNC(=O)c1cccs1)C(C(=O)NC1CCCC1)c1cccs1 (centres undefined)	/	/	/	0.4	16%	/	0.75	/	14
C[C@H]1CN([C@@H](C)CO)C(=O)c2cc(NC(=O)C3CCCCC3)ccc2O[C@H]1CN(C)S(C)(=O)=O	-1	3	0.6	/	/	-1.8	/	i	/
Cc1ccc(NC(=O)NC(=O)CN2CCCC2c2ccc3c(c2)OCCO3)cc1C (centres undefined)	-19	-18	1.8	-1.6	/	0.1	0.72	i	7
Cc1cccc(CSc2nnc([C@@H]3CCCN3C(=O)OC(C)(C)C)o2)c1	16	20	1.8	-2.4	3%	-1.2	0.66	i	-13
CCCc1nc2sc3c(c2c(=O)n1NC(=O)CCC(=O)O)CCCC3	-3	-2	-10	-1.8	-2%	5.3	0.67	i	-7
O=C(C[C@@H]1C/C=C\C[C@@H](Cc2ccc(F)cc2)C(=O)OCCNC1=O)NCCO	17	11	-9.0	3.2	/	0.4	/	i	-5
Cc1cc(C)n(-c2cc(N3CCOCC3)ncn2)n1	3	2	-0.5	-0.8	17%	7.4	0.74	i	/
CCOc1cc(C(=O)OCC(=O)Nc2ccc(SC(F)F)cc2)cc(OCC)c1OCC	/	/	/	2.3	31%	/	0.67	/	-5
COc1cccc(/C=C2\SC(=O)N(CC(=O)NC3CCS(=O)(=O)C3)C2=O)c1 (centres undefined)	1	1	-4.3	0.7	/	1.1	0.68	i	4
Cc1ccc(C(=O)Nc2cccc(C(=O)O)c2)cc1S(=O)(=O)N1CCOCC1	6	9	-0.1	0.5	71%	-57	0.69	i	-2
COc1ccc(-c2cc(N3C(=O)Nc4ccccc4N3O)n[nH]2)cc1OC	1	6	0.4	2.3	/	-6.5	0.68	i	/
CCC(Cc1ccccc1)NS(=O)(=O)c1c(C)nc2sccn2c1=O (centres undefined)	-3	-10	-4.5	0.6	/	0.4	0.79	i	-3
CN(C)Cc1c(C(C)(C)O)[nH]c2ccc(C(F)(F)F)cc12	9	18	1.6	1.2	/	0.8	0.69	i	-1
COc1ccccc1NC(=O)CSc1nc2ccccc2cc1Cc1ccccc1	29	9	7.1	1.9	3%	0.9	0.67	i	-5
CCn1c(=O)cc(SCC(=O)NCc2ccccn2)c2ccccc21	/	/	/	0.9	7%	/	0.65	/	98*
CCCNC(=O)C[C@@H]1CC[C@H]2[C@@H](COC[C@@H](O)CN2Cc2cccc(F)c2)O1	1	5	0.5	/	/	-1.1	/	i	/
COC(=O)Nc1ccc2ncn(C)c(=O)c2c1	4	15	5.4	-0.5	16%	3.3	0.69	i	-50
Cc1cc(C)cc(NC(=O)CSc2ccc(-c3ccco3)nn2)c1	/	/	/	-0.9	-12%	/	0.66	/	16
Cc1ccc(S(=O)(=O)N2CCN(c3nc4ccccc4nc3-n3nc(C)cc3C)CC2)cc1	/	/	/	-1.8	9%&-7%	/	0.75	/	/
C[C@@H]1CCCCO[C@@H](CN(C)C(=O)NC2CCCCC2)[C@@H](C)CN([C@H](C)CO)C(=O)c2cc(N(C)C)ccc2O1	2&3	6&2	1.7&1.2	/	/	1.9&-0.6&2.9	/	i	/
COc1ccc(-n2c3c(c(=O)[nH]c2=O)C(NC(=O)c2ccncc2)(C(F)(F)F)C(=O)N3)cc1 (centres undefined)	13	10	-0.8	-3.9	8%	-0.8	0.65	i	2
C/C(=N/NC(=O)c1cccc(C)c1)c1c(O)cc(C)oc1=O	/	/	/	1.4	1%	/	/	/	30
COc1ccccc1N1CCN(c2nc(-c3ccccc3)cc(C(F)(F)F)n2)CC1	/	/	/	-1.6	-9%	/	0.69	/	-6
Nc1ncnc(SCc2c(F)cccc2Cl)n1	4	1	-1.4	2.0	-11%	-8.3	0.67	i	1
CCC(C)N1C(=O)S/C(=C/c2ccc(N3CCOCC3)cc2C)C1=O (centres undefined)	-20	-20	-3.4	2.5	8%	26*	0.71	i	12
CC(=O)N1c2ccc(S(=O)(=O)NCCC(=O)N(C)Cc3ccccc3)cc2CC1C (centres undefined)	1	1	1.8	3.1	6%	-2.5	0.68	i	-8
CCOC(=O)C1=C(C)N(CCCC(=O)O)C(=O)NC1c1ccc(Cl)cc1 (centres undefined)	0	9	0.2	6.7	/	-7.4	0.66	i	1
CCCN1C[C@@H](C)[C@@H](OC)CN(C)C(=O)c2cc(NS(=O)(=O)CC)ccc2OC[C@@H]1C	1	5	0.9	/	/	-0.6	/	i	/
COc1ccc(NC(=O)c2ccc(Cl)c(S(=O)(=O)N3CC(C)OC(C)C3)c2)cn1 (centres undefined)	/	/	/	-2.5	-6%	2.3	0.67	i	3
CCN(CC)CCN(Cc1cc2cc3c(cc2[nH]c1=O)OCO3)C(=S)NCC1CCCO1 (centres undefined)	10	1	-0.1	1.7	/	0.2	0.75	i	-8
COC(=O)[C@@H]1Cc2c([nH]c3ccccc23)C2CCC(=O)N21 (some centres undefined)	7	8	11	3.7	1%	-11	0.66	i	3
CO[C@@H]1CN(C)C(=O)c2ccc(NC(=O)c3ccccc3)cc2OC[C@@H](C)N(C)C[C@@H]1C	1	1	-1.1	/	/	0.5	/	i	/
O=C(NC(n1ccc(=O)[nH]c1=O)C(Cl)(Cl)Cl)C12CC3CC(CC(C3)C1)C2 (centres undefined)	-36	-39	-7.1	-0.7	/	-34	0.73	i	-5
O=C1/C(=C\c2cccnc2)SC(=S)N1C1CCS(=O)(=O)C1 (centres undefined)	5	8	3.4	2.1	0%	-3.5	0.67	i	34
NC(=O)CC(NC(=O)Cc1cccc2ccccc12)c1ccc(N2CCC(Cc3ccccc3)CC2)c([N+](=O)[O-])c1 (centres undefined)	23	17	-4.7	-5.9	/	/	0.71	i	0
Cc1cc2nc(C)c(Cl)c(=O)n2[nH]1	10	18	-1.1	2.5	/	-1.3	0.73	i	10
O=C(Nc1ccc2c(c1)OCO2)N[C@@H]1CC[C@@H](CCNC(=O)C2CC2)O[C@H]1CO	0	5	-3.0	/	/	-4.1	/	i	/
Cc1cc(C(=O)COc2ccc3ccc(=O)oc3c2)c(C)n1C	5	-4	-1.9	-2.9	4%	-2.6	0.65	i	39
COc1cccc(C(=O)N(c2ccc(C)cc2)C2C=CS(=O)(=O)C2)c1 (centres undefined)	18	3	3.3	1.4	8%	-2.0	0.69	i	-2
CC(=O)Nc1ccc(OC(F)(F)C(F)F)c(NC(C)=O)c1	12	3	-2.8	4.8	20%	-2.1	0.65	i	-9

Exported as labelled records: part of the list above.
> Cc1cc(C(=O)COc2ccc3ccc(=O)oc3c2)c(C)n1C
  rRNA inh HTS: 5
  rRNA inh HTS OD600: -4
  rRNA inh HTS RFP: -1.9
  HNF4A DNA FP: -2.9
  Vif A3G: 4%
  AF4-AF9 inh: -2.6
  E coli growth: 0.65
  FGF22 binding: i
  ALR H2O2 inh: 39

> COc1cccc(C(=O)N(c2ccc(C)cc2)C2C=CS(=O)(=O)C2)c1 (centres undefined)
  rRNA inh HTS: 18
  rRNA inh HTS OD600: 3
  rRNA inh HTS RFP: 3.3
  HNF4A DNA FP: 1.4
  Vif A3G: 8%
  AF4-AF9 inh: -2.0
  E coli growth: 0.69
  FGF22 binding: i
  ALR H2O2 inh: -2

Sorted by value in E coli growth (lowest first): 3 of the compounds above
SMILES	rRNA inh HTS	rRNA inh HTS OD600	rRNA inh HTS RFP	HNF4A DNA FP	Vif A3G	AF4-AF9 inh	E coli growth	FGF22 binding	ALR H2O2 inh
CC(=O)N1c2ccc(S(=O)(=O)NCCC(=O)N(C)Cc3ccccc3)cc2CC1C (centres undefined)	1	1	1.8	3.1	6%	-2.5	0.68	i	-8
COc1ccccc1N1CCN(c2nc(-c3ccccc3)cc(C(F)(F)F)n2)CC1	/	/	/	-1.6	-9%	/	0.69	/	-6
O=C(NC(n1ccc(=O)[nH]c1=O)C(Cl)(Cl)Cl)C12CC3CC(CC(C3)C1)C2 (centres undefined)	-36	-39	-7.1	-0.7	/	-34	0.73	i	-5

The list is partial; count on the stated rates, not on these rows.
